# RECQ1 helicase – qHTS Assay for Inhibitors of RecQ-Like Dna Helicase 1 (RECQ1); Potency, µM (highest dose often 57.3 µM), without a hit: at the highest dose activity, negative = inhibition, usual class: inhibitors; RECQ1 DNA unwinding, red fluorescence kinetic read; ATP-dependent DNA helicase Q1 (Homo sapiens), P46063; AID 2549, 2010; 240,000 tested, 0.54% active;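 also: plate controls were vehicle for no effect and no enzyme for full effect; nearly all actives have a fitted effect of over 30% in size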
#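 50 nM RECQ1T1 preincubated 15 min with compound in Tris pH 8.0 buffer with MgCl2, DTT, Tween-20 and 2.5 ug/ml poly(dI-dC); started with 200 nM TAMRA/BHQ-2 forked duplex and 2 mM ATP. Unwinding read as fluorescence (525/598 nm), two reads 2 h apart.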
# KinaseGlo FLuc – Counterscreen for Luciferase (Kinase-Glo TM) Inhibition | Luciferin 4-monooxygenase (Photuris pensylvanica), Q27757 | Kinase-Glo luciferase, ATP luminescence, 8 min | Potency, µM (doses to about 38.3 µM), inactives show top-dose activity change, negative = inhibition, most hits filed as inhibitors | 200,000 tested, 0.28% active | AID 1379, 2008; also: % is scaled to controls: 0 for no effect and ±100 for the full control effect; nearly all actives have a fitted effect of over 60% in size
#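 Light output from Kinase-Glo luciferase with luciferin and 10 uM ATP in 50 mM imidazole pH 7.2, KCl, MgCl2, Tween 20, BSA; compound pin-delivered, 8-min ambient incubation, then luminescence read.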
# Tau ThT inhib – qHTS for Inhibitors of Tau Fibril Formation, Thioflavin T Binding; AID 1460, 2008; recombinant tau K18 P301L, heparin-induced fibrillization, ThT fluorescence; Microtubule-associated protein tau (Homo sapiens), P10636; 270,000 tested, 2.1% active; Potency, µM (series often up to 57.4 µM), inactives show top-dose activity, negative = inhibition, actives largely listed as inhibitors; also: % is scaled to controls: 0 for no effect and ±100 for the full control effect; nearly all actives have a fitted effect of over 55% in size
# Target sequence (P10636 561-689 P618L limits assumed): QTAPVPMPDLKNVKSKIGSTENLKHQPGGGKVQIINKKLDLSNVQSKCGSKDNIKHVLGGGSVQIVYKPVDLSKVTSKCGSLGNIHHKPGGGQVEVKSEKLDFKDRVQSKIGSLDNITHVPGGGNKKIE
#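 Using a mix of unlabeled (15 uM) and Alexa 594-labeled (0.24 uM) tau K18 P301L, heparin-triggered fibrillization over 6 hr at 37 C was scored by ThT fluorescence.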
# SMN2 splice enh – qHTS Assay for Enhancers of SMN2 Splice Variant Expression; AID 1458, 2008; 210,000 tested, 2.8% active; HEK293 SMN2-luciferase splicing reporter, luminescence, 30-36 h; Potency, µM (top dose mostly 46.1 µM), inactives show at the highest dose activity change, positive = activation, most hits filed as activators; also: % of control where 0% means no effect; nearly all actives have a fitted effect of over 55% in size
#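 HEK293 cells carry an SMN2 […]–luciferase reporter in which exon 7 inclusion puts luciferase in frame. Cells were plated 10-12 h before compound addition, then incubated 30-36 h at 37C. ONE-Glo luminescence was read; sodium butyrate at 4.5 mM final served as control.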
# ALDH1A1 block – qHTS Assay for Inhibitors of Aldehyde Dehydrogenase 1 (ALDH1A1); 220,000 tested, 7.3% active; AID 1030, 2008; Purified ALDH1A1, NADH fluorescence, propionaldehyde substrate; Potency, µM (titrated, usually from 75.3 µM), for the others: at the highest dose activity, negative = inhibition, actives largely listed as inhibitors; active = well fitted inhibition curve with a large enough effect, not every such curve was filed as active; inconclusive = small, poorly fitted or top-dose-only effect, or another doubt; inactive = no such curve, though single readings can be large or run the other way;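 also: plate controls were no enzyme wells and a reference inhibitor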
# Target sequence (P00352 whole entry, looked up): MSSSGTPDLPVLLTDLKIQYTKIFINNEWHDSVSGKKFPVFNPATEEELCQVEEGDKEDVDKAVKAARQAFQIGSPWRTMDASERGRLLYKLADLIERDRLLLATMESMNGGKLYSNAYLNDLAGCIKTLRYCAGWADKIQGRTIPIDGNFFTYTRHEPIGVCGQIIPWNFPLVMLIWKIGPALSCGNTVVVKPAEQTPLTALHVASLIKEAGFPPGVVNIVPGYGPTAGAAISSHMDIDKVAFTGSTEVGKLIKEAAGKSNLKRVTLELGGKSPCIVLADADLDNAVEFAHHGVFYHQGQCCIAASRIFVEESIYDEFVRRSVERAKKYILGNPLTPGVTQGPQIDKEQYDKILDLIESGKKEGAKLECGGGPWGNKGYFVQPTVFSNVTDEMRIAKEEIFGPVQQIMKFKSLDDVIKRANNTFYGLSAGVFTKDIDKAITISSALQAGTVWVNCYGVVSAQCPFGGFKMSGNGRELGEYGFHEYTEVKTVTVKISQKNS
# Lamin A splicing – qHTS Assay for Modulators of Lamin A Splicing; HeLa LMNA splicing GFP/RFP minigene ratio, 48 h; Potency, µM (series often up to 46.1 µM), for inactives: at the highest dose ratio change, negative = inhibition, hits mostly inhibitors; 200,000 tested, 0.01% active; AID 1487, 2009; active = well fitted inhibition curve with a large enough effect in the signal ratio, with a control signal flat, not every such curve was filed as active; inconclusive = small, poorly fitted or top-dose-only effect, or effect the other way, or a change in a side signal; the % refers to the signal ratio; also: % is scaled to controls: 0 for no effect and ±100 for the full control effect
#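 Read-out is the ratio of GFP to DsRed2 object intensity, acquired by 488 nm laser-scanning cytometry on HeLa lamin A-EGFP minigene reporter cells. Compound incubation 48 hrs at 37 °C in Opti-MEM with 2% FBS; DMSO 0.5% final.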
# * = called active by the depositor; i = inactive; ? = inconclusive; / = not tested or not shown; & = joins results of further samples; [ ] = remark or other dose. Unless noted, calls follow the shape of the dose curve; as a rule, active = well fitted curve in the direction sought with a large enough effect; inconclusive = small, poorly fitted or top-dose-only effect, or another doubt; inactive = no such curve, though single readings can be large; an effect the other way counts as inactive or inconclusive. Potency is read from the fitted curve at half-maximal effect.
# Start of the listing, in advance (6 entries):
SMILES,RECQ1 helicase,KinaseGlo FLuc,Tau ThT inhib,SMN2 splice enh,ALDH1A1 block,Lamin A splicing
COc1ccc(/C=C2\N=C(C)N(c3ccc(C(=O)O)cc3)C2=O)cc1OC,3.4%,0.4%,-17.4%,-15.5%,1.9%,-3.5%
OC(CN1CCc2ccccc2C1)c1ccccc1 (stereo not drawn),i,-1.0%,-4.9%,-0.4%,-6.2%,-3.0%[46 µM]
CCOC(=O)C1CCCN(c2nc3ccccc3nc2C(C#N)C(=O)NCc2ccccc2)C1 (stereo not drawn),-2.0%,3.6%,-20.5%,-14.7%,-13.1%,-8.0%
CC1CCc2c(sc3ncnc(SCC(=O)N4CCN(C(=O)c5ccco5)CC4)c23)C1 (stereo not drawn),-5.3%,-2.6%,-10.6%,26.3%,?,4.7%
C/C(=N\NC(=O)c1ccccc1O)c1c(O)cc(C)oc1=O,-11.3%,-4.6%,?,?,?,-8.3%
C=CCn1c(CCNC(=O)c2ccccc2F)nnc1SCc1nc2ccccc2c(=O)[nH]1,-6.2%,1.6%,-4.2%,-12.7%,2.9%,24.0%

# All compounds of this part, previewed entries included:
SMILES,RECQ1 helicase,KinaseGlo FLuc,Tau ThT inhib,SMN2 splice enh,ALDH1A1 block,Lamin A splicing
COc1ccc(/C=C2\N=C(C)N(c3ccc(C(=O)O)cc3)C2=O)cc1OC,3.4%,0.4%,-17.4%,-15.5%,1.9%,-3.5%
OC(CN1CCc2ccccc2C1)c1ccccc1 (stereo not drawn),i,-1.0%,-4.9%,-0.4%,-6.2%,-3.0%[46 µM]
CCOC(=O)C1CCCN(c2nc3ccccc3nc2C(C#N)C(=O)NCc2ccccc2)C1 (stereo not drawn),-2.0%,3.6%,-20.5%,-14.7%,-13.1%,-8.0%
CC1CCc2c(sc3ncnc(SCC(=O)N4CCN(C(=O)c5ccco5)CC4)c23)C1 (stereo not drawn),-5.3%,-2.6%,-10.6%,26.3%,?,4.7%
C/C(=N\NC(=O)c1ccccc1O)c1c(O)cc(C)oc1=O,-11.3%,-4.6%,?,?,?,-8.3%
C=CCn1c(CCNC(=O)c2ccccc2F)nnc1SCc1nc2ccccc2c(=O)[nH]1,-6.2%,1.6%,-4.2%,-12.7%,2.9%,24.0%
C/C(=N\NC(=O)c1cccnc1)c1c(O)cc(C)oc1=O,-2.4%,-5.8%,6.8%,34.4%,25.1µM*,1.1%
COc1cccc(OC)c1OCCOCCn1cnc2ccccc2c1=O,-5.6%,6.9%,-1.0%,-24.4%,3.5%,14.6%
Cc1ccc(-n2c3c(c(=O)[nH]c2=O)C(NS(=O)(=O)c2ccc(C)cc2)(C(F)(F)F)C(=O)N3)cc1 (stereo not drawn),-12.6%,1.7%,-11.3%&-5.4%,5.8%&1.0%,2.7%,13.3%[0.0737 µM]
CC(C)c1nnc(NC(=O)CCC(=O)NCCc2ccccc2)s1,-4.2%,/,-3.5%,/,/,/
CCOC(=O)c1cc(C#N)c(N2CCOCC2)nc1-c1ccccc1,i,-2.5%,-4.2%,-13.7%,?,-12.3%[46 µM]
C=CCNc1ncnc2c1cnn2-c1ccc(OC)cc1,-7.2%,-1.3%,?,?,?,5.9%
CCCN1C(=O)c2[nH]nc(-c3cc(Cl)c(C)cc3O)c2C1c1ccc(O)c(OC)c1 (stereo not drawn),-7.0%,/,-9.2%,/,/,/
CC1=C(C(=O)Nc2ccccc2)C(c2ccncc2)n2nnnc2N1 (stereo not drawn),-4.4%,/,-12.7%,/,?,0.4%
CSc1ccc(-c2nc(CN(C)C3CCOC3)c(C)o2)cc1 (stereo not drawn),-6.9%,2.9%,-11.9%,/,-4.6%,/

# Full records, quoted from the list.
# Entry for `CCOC(=O)C1CCCN(c2nc3ccccc3nc2C(C#N)C(=O)NCc2ccccc2)C1` (stereo not drawn) : RECQ1 helicase: -2.0%; KinaseGlo FLuc: 3.6%; Tau ThT inhib: -20.5%; SMN2 splice enh: -14.7%; ALDH1A1 block: -13.1%; Lamin A splicing: -8.0%
# Entry for `C=CCNc1ncnc2c1cnn2-c1ccc(OC)cc1` : RECQ1 helicase: -7.2%; KinaseGlo FLuc: -1.3%; Tau ThT inhib: ?; SMN2 splice enh: ?; ALDH1A1 block: ?; Lamin A splicing: 5.9%

# Source: PubChem

# The list is partial; rates above refer to the full screens.
